Ran FRET = inhibitors of Ran–importin-beta complex formation, primary screen, biochemical, CFP-Ran/YFP-importin-beta FRET, RCC1, cell-free (AID 434961) | Regulator of chromosome condensation (Homo sapiens) + GTP-binding nuclear protein Ran … | CFP-Ran/YFP-importin-beta FRET, cell-free; active compounds read high | inhibition, % | 7,700 compounds, 0.2% hits;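 active means more than half of the replicate wells above 15% inhibition; inconclusive means exactly half above it; inactive means fewer than half above it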;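 further: 0% = DMSO wells and 100% inhibition = RanGDP control wells on each plate; stock of unstated strength diluted about 400-fold; mean of two wells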
* marks the source's active call; other numbers are inactive results; ? = inconclusive. The list is partial, so the mix of outcomes need not match the whole.

> C[C@H]1CCCCO[C@H](CN(C)C)[C@@H](C)CN([C@@H](C)CO)C(=O)c2cc(NC(=O)c3ccccc3)ccc2O1
  Ran FRET = 2.4
> C[C@@H]1CCCCO[C@H](CN(C)C(=O)CCCN(C)C)[C@H](C)CN([C@@H](C)CO)C(=O)c2cc(NC(=O)Cc3ccccc3)ccc2O1
  Ran FRET = ?
> COc1ccc(S(=O)(=O)Nc2ccc3c(c2)CC(=O)N([C@H](C)CO)C[C@@H](C)[C@H](CN(C)C)O3)cc1
  Ran FRET = -3.1
> C[C@@H]1CCCCO[C@H](CN(C)Cc2ccncc2)[C@H](C)CN([C@@H](C)CO)C(=O)c2cc(NS(C)(=O)=O)ccc2O1
  Ran FRET = -1.3
> C[C@H](CO)N1C[C@H](C)[C@H](CN(C)C)Oc2ccc(NC(=O)Nc3ccc4c(c3)OCO4)cc2C1=O
  Ran FRET = 0.2
> C[C@@H]1CN([C@@H](C)CO)C(=O)Cc2cc(NS(C)(=O)=O)ccc2O[C@@H]1CN(C)S(=O)(=O)c1cccs1
  Ran FRET = 4.8
> COc1ccc(NC(=O)Nc2cccc3c2O[C@@H](CN(C)C(=O)Nc2ccccc2)[C@H](C)CN([C@H](C)CO)C3=O)cc1
  Ran FRET = 0.1
> CC(C)NC(=O)Nc1cccc2c1O[C@@H](CN(C)C)[C@@H](C)CN([C@H](C)CO)C2=O
  Ran FRET = 0.1
> C[C@H]1CCCCO[C@@H](CN(C)C(=O)Cc2ccccc2)[C@@H](C)CN([C@@H](C)CO)C(=O)c2cc(N(C)C)ccc2O1
  Ran FRET = ?
> CNC[C@@H]1Oc2ncc(C#CCN(C)C)cc2C(=O)N([C@H](C)CO)C[C@@H]1C
  Ran FRET = -2.7

> C[C@@H]1CCCCO[C@@H](CN(C)S(=O)(=O)c2cn(C)cn2)[C@@H](C)CN([C@@H](C)CO)C(=O)c2cc(NS(=O)(=O)c3cn(C)cn3)ccc2O1
  Ran FRET = -0.5
> CNC[C@@H]1Oc2ccc(NC(=O)c3ccncc3)cc2CC(=O)N([C@@H](C)CO)C[C@H]1C
  Ran FRET = -2.0
> C[C@@H]1CN([C@@H](C)CO)C(=O)c2cc(NS(C)(=O)=O)ccc2O[C@@H](C)CCCCO[C@@H]1CN(C)S(=O)(=O)c1ccccc1
  Ran FRET = ?
> CNC[C@@H]1Oc2c(NC(=O)c3ccncc3)cccc2C(=O)N([C@@H](C)CO)C[C@H]1C
  Ran FRET = 0.3
> C[C@H](CO)N1C[C@H](C)[C@@H](CN(C)Cc2ccc(Cl)c(Cl)c2)Oc2ccc(NC(=O)Nc3ccc4c(c3)OCO4)cc2C1=O
  Ran FRET = 2.7
> C[C@H]1CN([C@@H](C)CO)C(=O)CCCn2cc(nn2)CO[C@@H]1CN(C)C(=O)CCC(F)(F)F
  Ran FRET = 8.8
> CC(C)NC(=O)Nc1ccc2c(c1)C(=O)N([C@H](C)CO)C[C@H](C)[C@H](CN(C)C)OCCCC[C@H](C)O2
  Ran FRET = -3.3
> CC(C)NC(=O)Nc1ccc2c(c1)CC(=O)N([C@@H](C)CO)C[C@H](C)[C@@H](CN(C)Cc1ccc(-c3ccccc3)cc1)O2
  Ran FRET = -4.0
> C[C@@H]1CN([C@H](C)CO)C(=O)CCCn2cc(nn2)CO[C@H]1CN(C)C(=O)c1cc(-c2ccccc2)on1
  Ran FRET = 2.7
> C[C@@H]1CN([C@@H](C)CO)C(=O)c2cccc(NC(=O)c3nc4ccccc4s3)c2O[C@H]1CN(C)Cc1ccncc1
  Ran FRET = 2.3

Three compounds out of the list, sorted by formula weight, low to high:
> C[C@H]1CCCCO[C@H](CN(C)C)[C@@H](C)CN([C@@H](C)CO)C(=O)c2cc(NC(=O)c3ccccc3)ccc2O1
  Ran FRET = 2.4
> CC(C)NC(=O)Nc1ccc2c(c1)CC(=O)N([C@@H](C)CO)C[C@H](C)[C@@H](CN(C)Cc1ccc(-c3ccccc3)cc1)O2
  Ran FRET = -4.0
> COc1ccc(NC(=O)Nc2cccc3c2O[C@@H](CN(C)C(=O)Nc2ccccc2)[C@H](C)CN([C@H](C)CO)C3=O)cc1
  Ran FRET = 0.1

Next section:
> C[C@H]1CN([C@@H](C)CO)C(=O)c2cccc(NS(=O)(=O)c3cn(C)cn3)c2O[C@H]1CN(C)Cc1ccc(C(F)(F)F)cc1
  Ran FRET = 3.3
> CC(C)NC(=O)Nc1ccc2c(c1)C(=O)N([C@@H](C)CO)C[C@H](C)[C@H](CN(C)S(=O)(=O)c1ccccc1)OCCCC[C@@H](C)O2
  Ran FRET = 1.3
> C[C@H]1CN([C@@H](C)CO)C(=O)Cc2cc(NC(=O)Cc3cn(C)c4ccccc34)ccc2O[C@@H]1CN(C)CC1CC1
  Ran FRET = 1.9
> C[C@@H]1CN([C@@H](C)CO)C(=O)c2cc(NC(=O)c3ccncc3)ccc2O[C@@H](C)CCCCO[C@H]1CN(C)Cc1ccc(C(=O)O)cc1
  Ran FRET = 2.3
> CNC[C@@H]1OCCCC[C@H](C)Oc2ccc(NC(=O)Nc3ccc4c(c3)OCO4)cc2C(=O)N([C@H](C)CO)C[C@@H]1C
  Ran FRET = 0.7
> CC(C)NC(=O)Nc1ccc2c(c1)C(=O)N([C@H](C)CO)C[C@@H](C)[C@H](CN(C)S(=O)(=O)c1cn(C)cn1)OCCCC[C@H](C)O2
  Ran FRET = 4.1
> C[C@H]1CN([C@@H](C)CO)C(=O)c2cc(NC(=O)C3CC3)ccc2O[C@@H]1CN(C)Cc1ccc(Cl)c(Cl)c1
  Ran FRET = -5.2
> C[C@H](CO)N1C[C@H](C)[C@H](CN(C)C)Oc2ncc(C#Cc3ccc(F)cc3)cc2C1=O
  Ran FRET = 7.4
> Cc1noc(C)c1NC(=O)Nc1ccc2c(c1)CC(=O)N([C@@H](C)CO)C[C@H](C)[C@@H](CN(C)C(=O)NC(C)C)O2
  Ran FRET = -5.2
> C[C@@H]1CN([C@@H](C)CO)C(=O)c2cc(NC(=O)Nc3ccccc3)ccc2O[C@@H](C)CCCCO[C@H]1CN(C)C
  Ran FRET = -3.6

> C[C@@H]1CN([C@@H](C)CO)C(=O)c2cc(N(C)C)ccc2O[C@@H](C)CCCCO[C@@H]1CN(C)Cc1ccccc1
  Ran FRET = -2.7
> CNC[C@@H]1Oc2c(cccc2N(C)C)C(=O)N([C@H](C)CO)C[C@H]1C
  Ran FRET = -1.7
> C[C@@H]1CN([C@H](C)CO)C(=O)c2cc(NC(=O)c3ccncc3)ccc2O[C@@H](C)CCCCO[C@H]1CN(C)C(=O)Nc1cccc2ccccc12
  Ran FRET = -0.7
> Cc1noc(C)c1NC(=O)N(C)C[C@@H]1Oc2ccc(NS(=O)(=O)c3cn(C)cn3)cc2CC(=O)N([C@H](C)CO)C[C@@H]1C
  Ran FRET = -5.8
> COc1ccc(CN(C)C[C@H]2Oc3ccc(NC(=O)C4CC4)cc3C(=O)N([C@H](C)CO)C[C@@H]2C)cc1
  Ran FRET = -1.3
> C[C@@H]1CN([C@@H](C)CO)C(=O)Cc2cc(NC(=O)CCN3CCOCC3)ccc2O[C@H]1CN(C)Cc1ccc(-c2ccccc2)cc1
  Ran FRET = -0.1
> C[C@@H]1CN([C@@H](C)CO)C(=O)Cc2cc(NS(=O)(=O)c3ccc(Cl)cc3)ccc2O[C@@H]1CN(C)C(=O)NC1CCCCC1
  Ran FRET = -2.3
> Cc1noc(C)c1S(=O)(=O)Nc1ccc2c(c1)C(=O)N([C@H](C)CO)C[C@H](C)[C@H](CN(C)C(=O)Nc1ccc(F)cc1)O2
  Ran FRET = ?
> C[C@H]1CCCCO[C@H](CN(C)Cc2ccncc2)[C@@H](C)CN([C@@H](C)CO)C(=O)c2cc(NC(=O)Nc3ccccc3)ccc2O1
  Ran FRET = 1.3
> C[C@H]1CCCCO[C@@H](CN(C)S(=O)(=O)c2ccccc2)[C@@H](C)CN([C@@H](C)CO)C(=O)c2cc(NS(=O)(=O)c3cn(C)cn3)ccc2O1
  Ran FRET = -0.1

> CC(C)NC(=O)N(C)C[C@H]1OCCCC[C@@H](C)Oc2ccc(NC(=O)c3ccncc3)cc2C(=O)N([C@H](C)CO)C[C@H]1C
  Ran FRET = 2.4
> C[C@@H]1CN([C@H](C)CO)C(=O)c2cccc(NS(=O)(=O)c3cn(C)cn3)c2O[C@@H]1CN(C)C(=O)Nc1cccc2ccccc12
  Ran FRET = -2.1
> C[C@@H]1CN([C@H](C)CO)C(=O)c2cc(NC(=O)c3ccncc3)ccc2O[C@H]1CN(C)C(=O)Nc1ccc2c(c1)OCO2
  Ran FRET = 0.2
> C[C@H]1CN([C@@H](C)CO)C(=O)Cc2cc(NS(=O)(=O)c3cn(C)cn3)ccc2O[C@H]1CN(C)S(=O)(=O)c1cn(C)cn1
  Ran FRET = 1.0
> C[C@H](CO)N1C[C@H](C)[C@H](CN(C)S(=O)(=O)c2ccc3c(c2)OCCCO3)OCc2cn(nn2)CCCC1=O
  Ran FRET = 6.6
> CNC[C@@H]1OCCCC[C@@H](C)Oc2ccc(NC(=O)c3ccncc3)cc2C(=O)N([C@@H](C)CO)C[C@H]1C
  Ran FRET = 0.5
> C[C@@H]1CN([C@@H](C)CO)C(=O)Cc2cc(NC(=O)c3ccncc3)ccc2O[C@H]1CN(C)CC1CC1
  Ran FRET = 2.0
> C[C@@H]1CN([C@@H](C)CO)C(=O)c2cc(NC(=O)Nc3ccc4c(c3)OCO4)ccc2O[C@H]1CN(C)Cc1ccc(Cl)c(Cl)c1
  Ran FRET = -1.5
> C[C@@H]1CN([C@H](C)CO)C(=O)c2cccc(NC(=O)c3nc4ccccc4s3)c2O[C@@H]1CN(C)C(=O)Nc1ccccc1
  Ran FRET = 1.3
> C[C@@H]1CN([C@H](C)CO)C(=O)Cc2cc(NC(=O)Nc3ccccc3)ccc2O[C@@H]1CN(C)Cc1ccncc1
  Ran FRET = 4.4

> C[C@H]1CCCCO[C@H](CN(C)C)[C@@H](C)CN([C@@H](C)CO)C(=O)c2cc(NC(=O)C3CCCCC3)ccc2O1
  Ran FRET = -1.1
> C[C@H]1CN([C@@H](C)CO)C(=O)Cc2cc(NC(=O)CCC(F)(F)F)ccc2O[C@H]1CN(C)S(=O)(=O)c1ccccc1
  Ran FRET = 3.0
> C[C@H](CO)N1C[C@H](C)[C@@H](CN(C)C(=O)Nc2ccc(C(F)(F)F)cc2)Oc2ccc(NS(=O)(=O)c3ccccc3)cc2C1=O
  Ran FRET = 1.8
> C[C@@H]1CN([C@@H](C)CO)C(=O)c2cccc(NS(C)(=O)=O)c2O[C@@H]1CN(C)S(=O)(=O)c1cn(C)cn1
  Ran FRET = -2.5
> C[C@@H]1CCCCO[C@@H](CN(C)C(=O)c2ccncc2)[C@H](C)CN([C@H](C)CO)C(=O)c2cc(NC(=O)CCC(F)(F)F)ccc2O1
  Ran FRET = -0.9
> C[C@H]1CCCCO[C@H](CN(C)Cc2ccccc2)[C@@H](C)CN([C@@H](C)CO)C(=O)c2cc(NS(C)(=O)=O)ccc2O1
  Ran FRET = -2.0
> C[C@H]1CN([C@@H](C)CO)C(=O)Cc2cc(NC(=O)Cn3cnnn3)ccc2O[C@@H]1CN(C)C(=O)Nc1ccccc1
  Ran FRET = ?
> C[C@@H]1CN([C@H](C)CO)C(=O)c2cc(NS(=O)(=O)c3ccccc3)ccc2O[C@@H](C)CCCCO[C@H]1CN(C)Cc1ccc2c(c1)OCO2
  Ran FRET = 0.2
> C[C@@H]1CN([C@@H](C)CO)C(=O)c2cccc(NC(=O)C3CCOCC3)c2O[C@H]1CN(C)C(=O)Nc1ccc(F)cc1
  Ran FRET = -4.3
> C[C@H](CO)N1C[C@H](C)[C@H](CN(C)S(=O)(=O)c2cn(C)cn2)Oc2c(NS(=O)(=O)c3ccc(Cl)cc3)cccc2C1=O
  Ran FRET = -0.5
> C[C@@H]1CN([C@@H](C)CO)C(=O)c2cccc(NS(=O)(=O)c3ccc(Cl)cc3)c2O[C@@H]1CN(C)S(=O)(=O)c1cn(C)cn1
  Ran FRET = -0.9
> C[C@H](CO)N1C[C@H](C)[C@@H](CN(C)S(=O)(=O)c2cn(C)cn2)Oc2c(NC(=O)Nc3cccc4ccccc34)cccc2C1=O
  Ran FRET = -0.2
> C[C@@H]1CN([C@H](C)CO)C(=O)Cc2cc(NC(=O)CCN3CCOCC3)ccc2O[C@H]1CN(C)S(=O)(=O)c1cn(C)cn1
  Ran FRET = 1.5

Filtered by structure, the compounds so far containing two or more sulfur atoms.
> C[C@@H]1CN([C@@H](C)CO)C(=O)Cc2cc(NS(C)(=O)=O)ccc2O[C@@H]1CN(C)S(=O)(=O)c1cccs1
  Ran FRET = 4.8
> C[C@@H]1CCCCO[C@@H](CN(C)S(=O)(=O)c2cn(C)cn2)[C@@H](C)CN([C@@H](C)CO)C(=O)c2cc(NS(=O)(=O)c3cn(C)cn3)ccc2O1
  Ran FRET = -0.5
> C[C@@H]1CN([C@@H](C)CO)C(=O)c2cc(NS(C)(=O)=O)ccc2O[C@@H](C)CCCCO[C@@H]1CN(C)S(=O)(=O)c1ccccc1
  Ran FRET = ?
> C[C@H]1CCCCO[C@@H](CN(C)S(=O)(=O)c2ccccc2)[C@@H](C)CN([C@@H](C)CO)C(=O)c2cc(NS(=O)(=O)c3cn(C)cn3)ccc2O1
  Ran FRET = -0.1
> C[C@H]1CN([C@@H](C)CO)C(=O)Cc2cc(NS(=O)(=O)c3cn(C)cn3)ccc2O[C@H]1CN(C)S(=O)(=O)c1cn(C)cn1
  Ran FRET = 1.0
> C[C@@H]1CN([C@@H](C)CO)C(=O)c2cccc(NS(C)(=O)=O)c2O[C@@H]1CN(C)S(=O)(=O)c1cn(C)cn1
  Ran FRET = -2.5
> C[C@H](CO)N1C[C@H](C)[C@H](CN(C)S(=O)(=O)c2cn(C)cn2)Oc2c(NS(=O)(=O)c3ccc(Cl)cc3)cccc2C1=O
  Ran FRET = -0.5
> C[C@@H]1CN([C@@H](C)CO)C(=O)c2cccc(NS(=O)(=O)c3ccc(Cl)cc3)c2O[C@@H]1CN(C)S(=O)(=O)c1cn(C)cn1
  Ran FRET = -0.9
